Compound activity: PubChem, National Center for Advancing Translational Sciences (NCATS)
VDR inhibitor: Inhibitors of the vitamin D receptor (VDR): qHTS; VDR-SRC2-3 peptide fluorescence polarization, 2 h; Potency, µM, without a hit: max response, negative = inhibition, most hits filed as inhibitors; 400,000 tested, 0.93% active; active = well fitted inhibition curve with a large enough effect; inconclusive = small, poorly fitted or top-dose-only effect, or another doubt; inactive = no such curve, though single readings can be large or run the other way; also: series mostly up to about 120 µM
Target sequence (P11473 whole entry, looked up): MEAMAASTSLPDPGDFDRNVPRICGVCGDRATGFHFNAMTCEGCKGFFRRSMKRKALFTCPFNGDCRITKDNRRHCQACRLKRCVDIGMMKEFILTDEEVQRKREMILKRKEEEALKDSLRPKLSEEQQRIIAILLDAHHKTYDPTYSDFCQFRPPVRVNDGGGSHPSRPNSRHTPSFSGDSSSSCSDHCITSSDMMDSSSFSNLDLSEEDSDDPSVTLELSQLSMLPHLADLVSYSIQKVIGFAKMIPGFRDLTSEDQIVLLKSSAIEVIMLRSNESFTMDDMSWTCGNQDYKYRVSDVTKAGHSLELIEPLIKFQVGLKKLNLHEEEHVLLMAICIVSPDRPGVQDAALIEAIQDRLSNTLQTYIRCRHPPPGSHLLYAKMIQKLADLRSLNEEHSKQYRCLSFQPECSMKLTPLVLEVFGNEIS
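Reagent solutions, kept cold and dark, are dispensed first; compounds are then pinned in at 23 nl, plates briefly spun, and incubated 2 h at ambient temperature. Inhibition of VDR–SRC2-3 peptide binding is read by fluorescence polarization.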
Numbers without * were called inactive; ? = inconclusive; & = joins results of further samples. % is scaled to controls: 0 for no effect and ±100 for the full control effect; potency is read from the fitted curve at half-maximal effect. Only part of the results is shown; count on the stated rates, not on these rows.

VDR inhibitor,Molecule
-4.2%,CCc1cccc2c(SCC(=O)NCC3CCCO3)nc(-c3ccc(F)cc3)nc12 (configuration not stated)
44.7µM*,CS(=O)(=O)Nc1cccc(-c2ccc3ncnc(N4CCOCC4)c3c2)c1
-5.0%,COc1ccccc1Nc1nc(NCC2CCCO2)c2ccccc2n1 (configuration not stated)
-11.0%,Cc1ccc(C(=O)N[C@H](C(=O)OCC(=O)c2ccc[nH]2)C(C)C)cc1
-95.8%,Nc1nsc2ccccc12
-12.3%,C=CCn1c(=S)[nH]c2cc(C(=O)Nc3ccc(F)cc3)ccc2c1=O
-23.9%,COc1ccc(-c2ccc(C3C4C=CCCC4(C)C(=O)N3Cc3ccccc3)c(F)c2)cc1 (configuration not stated)
-8.2%,COC(=O)CSc1cc([N+](=O)[O-])cc2c1c(C1OCCO1)nn2-c1ccccc1
-13.8%,O=C(Nc1ccccc1C(=O)N1CCCCC1)c1ccc(Cl)cc1Cl
-0.2%,COc1ccc(C(=O)NNC(=O)C(=O)/C=C(\O)c2ccc(C)cc2)cc1
7.5%,Nn1c(SCC(=O)NCc2ccc3c(c2)OCO3)nnc1C(F)(F)F
5.5%,CC(NC(=O)NC(=O)c1cccc(Cl)c1)c1ccccc1 (configuration not stated)
6.3%,O=C(NCC(=O)N1CCN(C(=O)c2ccco2)CC1)c1ccccc1
-0.4%,Clc1ccc(-c2ccccc2)cn1
1.4%,Cc1nn(C)c(Cl)c1S(=O)(=O)N1CCC(CO)(CCc2ccccc2)CC1
5.4%,CCO[C@H]1OC(C(=O)NCc2nc3ccccc3[nH]2)=C[C@@H](c2ccc(Br)cc2)[C@@H]1CCCO
-20.9%,O=C(O)c1ccccc1-c1ccccc1C(=O)Nc1cccc(O)c1
0.3%,CN(Cc1ccccc1)C(=O)c1ccc(CSc2nc3cccnc3n2Cc2ccccc2F)cc1
-3.2%,CCCCCN(C(=O)CN(C)Cc1ccc(OC)cc1OC)c1c(N)n(CCCC)c(=O)[nH]c1=O
-13.5%,O=c1cc[nH]c2c1ccc1c(=O)cc[nH]c12
-0.2%,COc1cccc(-c2nc(NCCNC(C)=O)c3ccccc3n2)c1
-12.7%,O=C(CSCc1ccccc1F)NCc1ccccc1
-10.3%,Cc1ccc(-c2nnc(Nc3cccc(Cl)c3)c3ccccc23)cc1S(=O)(=O)N1CCOCC1
?,CCOc1cc(-c2ccc3c(c2)OCO3)cc(=[O+]CC)c2c(C)oc(C)c12
-7.2%,Cc1cc(C)cc(NC(=O)c2ccccc2CC[N+](=O)[O-])c1
5.8%,COCc1ccc(CN2CCc3c([nH]c4ccccc34)C2C(C)(C)C)o1 (configuration not stated)
6.9%,COC(=O)c1ccc(C2C(C(=O)Nc3ccccc3)=C(C)Nc3nc4ccccc4n32)cc1 (configuration not stated)
-11.6%,CC(/C=N/N1CCN(c2ccccn2)CC1)=C\c1ccccc1
-5.7%,CC1CCCCC1NC(=O)C1CCN(c2c3c(nc4ncnn24)CCC3)CC1 (configuration not stated)
-19.4%,Cc1ccc(S(=O)(=O)NCC(=O)OCC(=O)NCc2ccco2)cc1
-14.1%,O=C(O)Cc1ccc(NC(=O)c2ccc(Cl)c(Cl)c2)cc1
-9.8%,O=C(N/N=C/c1ccc([N+](=O)[O-])cc1)c1ccc(COc2ccccc2-c2ccccc2)cc1
3.0%,O=C(Cc1ccc(S(=O)(=O)N2CCCCC2)s1)Nc1ccc(F)c(F)c1
-5.8%,CN(C)C(CNC(=O)c1c(F)cccc1Cl)c1ccco1 (configuration not stated)
-12.5%,O=C(CN1CCC(C(O)(c2ccccc2)c2ccccc2)CC1)Nc1cc(Cl)ccc1Cl
-1.8%,COCCNC(=O)C1CCCN(S(=O)(=O)c2c(C)noc2/C=C/c2cccs2)C1 (configuration not stated)
-7.8%,CCOc1ccc(OCC)c(NC(=O)CCc2nc3cccnc3n2Cc2cccs2)c1
-2.6%,Cc1cc(C)cc(NC(=O)c2cccc(C(=O)Nc3cc(C)cc(C)c3)n2)c1
15.1%,Cc1cc(Br)ccc1NC(=O)c1c(C)oc2ncnc(N3CCCCC3)c12
7.9%,CCOP(=O)(OCC)C(Nc1ccccc1)c1ccccc1C(F)(F)F (configuration not stated)
?,Cn1c(C(=O)NCCc2ccccc2)cc(=O)n(C)c1=O
-2.8%,COC(=O)C1CCN(C(=O)c2cc(OC)c(OC)c(OC)c2)CC1
5.6%,COc1cccc(NC(=S)N(CCC(C)C)C(C)c2ccncc2)c1 (configuration not stated)
29.4%,Cc1sc2nc(CN3CCCC3)nc(N3CCN(S(=O)(=O)c4cccs4)CC3)c2c1C
-0.1%,O=C(O)CCc1ccc(-c2ccccc2)n1CC(=O)Nc1ccccc1C(F)(F)F
-6.4%,CCCCCN(C(=O)CCC(=O)OCC(=O)NCc1ccc(OC)cc1)c1c(N)n(CCCC)c(=O)[nH]c1=O
?,CCN(CC)C(=O)c1sc2nc(Cc3ccccc3)[nH]c(=O)c2c1C
6.3%,COC(=O)C1CCN(C(c2ccccc2Cl)c2sc3nc(-c4ccco4)nn3c2O)CC1 (configuration not stated)
6.1%,CCOc1ccc(NC(=O)C(Cc2ccccc2)NS(=O)(=O)c2ccc3c(c2)oc(=O)n3C)cc1 (configuration not stated)
-5.6%,CCCn1cccc(C(=O)Nc2ccc(OC)cc2)c1=O
4.6%,COc1cc(NS(=O)(=O)c2ccc3c(c2)CCCN3C(C)=O)cc(OC)c1OC
-7.1%,COc1ccc(-c2nc3ccccc3o2)cc1NC(=O)c1ccc(N2CCC(C)CC2)c([N+](=O)[O-])c1
9.4%,N#Cc1c(N)c(C(=O)c2ccccc2)n2ccccc12
-5.1%,CCCCc1ncc(CN2CCN(Cc3ccc(C)cc3)C(CCO)C2)[nH]1 (configuration not stated)
3.3%,Cc1ccc(NC(=O)NC(=O)CN2CCCC2c2ccc3c(c2)OCCO3)cc1C (configuration not stated)
-0.7%,CC(C)NS(=O)(=O)c1ccc(NC(=S)NC(=O)c2cccc([N+](=O)[O-])c2)cc1
11.4%,CN(C(=O)CSc1nnc(-c2n[nH]c3ccccc23)o1)c1ccccc1
-19.8%,CC(C)C(NC(=O)OCc1ccccc1)C(=O)OCC(=O)NC1CC1 (configuration not stated)
12.4%,Cc1ccc2nc(CN3CCN(S(=O)(=O)c4ccc(C)c(C)c4)CC3)oc2c1
-2.3%,O=C(NCc1ccc(OC(F)(F)F)cc1)C1CCC(=O)N(C2CC2)C1 (configuration not stated)

Continuation:
VDR inhibitor,Molecule
-12.4%,CCN1C(=O)C(=O)N(CC(=O)N2CCC(C)Sc3ccccc32)C1=O (configuration not stated)
12.4%,CC(=O)Nc1ccc2c(c1)CCc1ccccc1-2
-3.8%,CCc1nnc(NC(=O)c2c(C)nn(-c3ccccc3)c2Cl)s1
27.2%,COCC(C)NCc1ccc(OC)c(Br)c1 (configuration not stated)
11.9%,COc1ccccc1NS(=O)(=O)c1cccc(C(=O)N2CCN(C(=O)c3ccco3)CC2)c1
-8.2%,CCOc1ccccc1C1c2cc3c(cc2OC(C)(N2CCCC2)C1C)OCO3 (configuration not stated)
-2.8%,Nc1nc(NC(=O)c2ccccc2)nn1-c1ccccc1
-25.2%,COc1ccc(C(C(=O)NC(C)(C)C)N(C(=O)CCC(=O)Nc2cc(C)on2)c2ccc3c(c2)OCCO3)cc1 (configuration not stated)
-20.7%,CNC(=S)Nc1ccc(OC(F)(F)F)cc1
-38.1%,O=C1CCc2cc(S(=O)(=O)N3CCC(C(=O)NCCC4=CCCCC4)CC3)ccc2N1
-6.4%,CC(=O)N1CCC2(CC1)C(C#N)=C(N)Oc1n[nH]c(C)c12
1.8%,O=C(c1ccc(F)cc1)N1CCC(N2CCOCC2)CC1
0.2%,CCn1c(SCC(=O)N(C)CCC#N)nc2cc(S(=O)(=O)N3CCOCC3)ccc21
13.4%,NS(=O)(=O)c1ccc(CNC(=O)CNC(=O)c2ccc(Br)o2)cc1
-5.8%,CCCNC(=O)c1cc2ccccc2c(=O)o1
-8.1%,O=S(=O)(c1cccc(Cl)c1Cl)N1CCN(C(=S)NCCCN2CCOCC2)CC1
-10.2%,CCC(=O)N1CCN(c2ccc(NC(=S)NC(=O)C(C)C)cc2)CC1
0.2%,O=C1c2ccncc2C(=O)N1CNc1ccc(Cl)cc1
12.1%,CNC(=O)c1c(NC(=O)c2nc(SCc3ccc(C)cc3)ncc2Cl)sc2c1CCCC2
-1.4%&15.2%,NC(=O)CSc1oc(-c2ccco2)nc1S(=O)(=O)c1ccc(Br)cc1

3 compounds drawn at random from those above:
VDR inhibitor,Molecule
-12.5%,O=C(CN1CCC(C(O)(c2ccccc2)c2ccccc2)CC1)Nc1cc(Cl)ccc1Cl
-23.9%,COc1ccc(-c2ccc(C3C4C=CCCC4(C)C(=O)N3Cc3ccccc3)c(F)c2)cc1 (configuration not stated)
-5.8%,CCCNC(=O)c1cc2ccccc2c(=O)o1

The list goes on:
VDR inhibitor,Molecule
8.91µM*,CCOC(=O)c1c(C)[nH]c(C2=NNC(=NC3CC3)SC2)c1C
-10.0%,CCc1nc(C#N)c(N2CCOCC2)o1
-8.6%,CN1CCN(CC#CC(C)(O)C2CC3C=CC2C3)CC1 (configuration not stated)
1.8%,CCOC(=O)c1c(C)[nH]c(C)c1S(=O)(=O)N1CCCC(C(=O)NCc2cccc(C)c2)C1 (configuration not stated)
-3.4%,CCOC(=O)c1cccc(NC(=O)CSc2nnc(CNc3ccc(C)cc3)n2CC)c1
-15.4%,CCOC(=O)c1nn(-c2ccccc2C)c2nc(Nc3ccccc3)cc(=O)n12
16.1%,Cc1cccc(NC(=O)CCC(=O)N/N=C/c2cccnc2)c1
-19.2%,O=C(CCCN1C(=O)c2ccccc2C1=O)NCCC1=CCCCC1
4.2%,Cc1[nH]c2c(Cl)cccc2c1CCNC(=O)C1CCCCC1C(=O)OCC(F)(F)F (configuration not stated)
-11.9%,Cc1ccc(S(=O)(=O)N2CCC(=O)N(C(COCc3ccc(Cl)c(Cl)c3)Cc3ccccc3)CC2)cc1 (configuration not stated)
5.0%,COCc1nc2ccccc2n1CCOc1ccccc1OC
23.5%,COc1ccc(NC(=O)N2CCc3ccccc32)cc1
-19.1%,COC(=O)c1nn(-c2ccc(OC)cc2)ccc1=O
4.8%,COc1cc(C(=O)NCCC(=O)NCCCN2CCCCC2)cc(OC)c1OC
9.2%,CCN(Cc1ccccc1)Cc1c(O)ccc2oc(C)c(C(=O)Nc3ccc(C)cc3C)c12
12.9%,CCCc1nn(C(=O)c2ccccc2)c2c1C(=O)CC(C)(C)C2
5.6%,CN(c1ccccc1C(=O)O)S(=O)(=O)c1ccc2c3c(cccc13)C(=O)N2
-4.5%,CCN1CCN(C(c2cccc(F)c2)c2c(O)cc(C)n(Cc3ccco3)c2=O)CC1 (configuration not stated)
-12.3%,Cc1ccc(N(CC(=O)NC2CCCC2)C(=O)CCC(=O)Nc2nccs2)c(C)c1
-12.0%,O=C(NCCCN1CCC(Cc2ccccc2)CC1)C1CCN(S(=O)(=O)N2CCOCC2)CC1

The last 4 records of the part above open the next one:
VDR inhibitor,Molecule
5.6%,CN(c1ccccc1C(=O)O)S(=O)(=O)c1ccc2c3c(cccc13)C(=O)N2
-4.5%,CCN1CCN(C(c2cccc(F)c2)c2c(O)cc(C)n(Cc3ccco3)c2=O)CC1 (configuration not stated)
-12.3%,Cc1ccc(N(CC(=O)NC2CCCC2)C(=O)CCC(=O)Nc2nccs2)c(C)c1
-12.0%,O=C(NCCCN1CCC(Cc2ccccc2)CC1)C1CCN(S(=O)(=O)N2CCOCC2)CC1
-0.3%,CCOc1ccccc1NC1=CC(=O)CC(c2ccccc2)C1 (configuration not stated)
16.6%,CCOc1ccccc1N1C(=O)c2ccc(S(=O)(=O)c3ccc(C(=O)O)cc3)cc2C1=O
-3.0%,CC(C)(C)N(NC(=O)Nc1ccc(Cl)cc1)C(=O)c1ccccc1
4.8%,COC(=O)N/N=C/c1ccc(-c2ccc(Cl)c(Cl)c2)o1
-4.1%,CCc1ccc(N2CC(C(=O)OCC(=O)NC3CC3)CC2=O)cc1 (configuration not stated)
-6.8%,Cc1cc(CN2CCN(CC(=O)Nc3cc(Cl)ccc3-n3cncn3)CC2)no1
7.5%,Cc1[nH]c2ccccc2c1CCNC(=O)c1c(N)no[n+]1[O-]
-1.1%,O=C(CCc1ccccc1)N/N=C/c1cccc(O)c1
-1.6%,Cc1ccc(S(=O)(=O)c2c(N)n(CCN3CCOCC3)c3nc4ccccc4nc23)cc1C
-2.3%,CCOC(=O)C1CCN(C(=O)c2cc3c(=O)n4cccc(C)c4nc3s2)CC1
-9.3%,COc1cc(C(=O)CCc2ccc3c(c2)OCO3)cc(OC)c1OC
2.5%,COc1cccc(/C=C/C(=O)OCC(=O)c2ccc(S(=O)(=O)N3CCCCC3)cc2)c1OC
-0.1%,CCc1nnc(NC(=O)C2CCN(S(=O)(=O)c3ccc(C)cc3)CC2)s1
3.9%,O=C(OC1CCOC1=O)c1ccc(N2CCCC2)c([N+](=O)[O-])c1 (configuration not stated)
3.0%,COc1ccc(CNc2ccc(S(N)(=O)=O)cc2)cc1
15.8%,O=C(N/N=C/c1ccc2c(c1)OCO2)c1cccc(NC(=O)c2ccccc2Cl)c1
-6.2%,CCN(C(=O)CSc1nnc(Cc2cccc3ccccc23)n1N)C1CCS(=O)(=O)C1 (configuration not stated)
-8.9%,CCCC(c1nnnn1CCC(C)C)N1CCC(C(N)=O)CC1 (configuration not stated)

An excerpt of these results, with each value named.
CCOc1ccccc1NC1=CC(=O)CC(c2ccccc2)C1 (configuration not stated)
  VDR inhibitor: -0.3%
CCOc1ccccc1N1C(=O)c2ccc(S(=O)(=O)c3ccc(C(=O)O)cc3)cc2C1=O
  VDR inhibitor: 16.6%
CC(C)(C)N(NC(=O)Nc1ccc(Cl)cc1)C(=O)c1ccccc1
  VDR inhibitor: -3.0%
